From PubChem BioAssay
Beta apoptosis – inhibitors of cytokine-induced beta cell apoptosis, primary screen, luminescence | INS-1E cytokine-induced death, ATP luminescence, 48 h; percent of positive-control rescue, neutral wells zero | protection from apoptosis, % (no concentration beside the values) | hit rate 0.8% among 300,000 | AID 435005, 2010;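 active = all replicates at 75% or more, or half of them and the mean; inconclusive = half reach 75% but not the mean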;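 also: 0% = cytokine-treated negative control wells and 100% = positive control rescue; higher means more ATP so stronger rescue from cytokine killing; wells of about 40 µL received 100 nL stock; the first replicate is given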
RanGTP-Impb inh – inhibitors of RanGTP-importin-beta interaction, primary screen, biochemical, FRET, CFP-Ran, YFP-importin-beta, homogeneous. cell-free CFP-Ran/YFP-importin-beta FRET ratio. AID 2216, 2009. Ran GTPase (GTP-bound) - importin-beta complex. inhibition, % (concentration not given with the values). hit rate 1.1% among 300,000;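 active = most replicates above 15%; inconclusive = exactly half above 15%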;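 also: 0% = DMSO wells and 100% = Ran loaded with GDP instead of GTP; wells of about 40 µL received 100 nL stock; the first replicate is given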
LANA-H2A inh – blockers of LANA interaction with H2A/H2B – biochemical, FP readout, HTS, primary screen; Protein LANA1 (Human herpesvirus 8 type P (isolate GK18)), Q9QR71; cell-free LANA-H2A/H2B peptide, fluorescence polarization; inhibition, % (test concentration not listed); hit rate 0.6% among 320,000; in the data active = inhibition mostly above about 10%, no sharp cut-off; inactive = mostly below about 6.7%;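 also: stock transfer was 7.5 nL into about 10 µL; 0% = median of vehicle wells and 100% = median of positive control wells; one replicate is shown; the record names a cut of 25% in any replicate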
Target sequence (Q9QR71 whole entry, looked up): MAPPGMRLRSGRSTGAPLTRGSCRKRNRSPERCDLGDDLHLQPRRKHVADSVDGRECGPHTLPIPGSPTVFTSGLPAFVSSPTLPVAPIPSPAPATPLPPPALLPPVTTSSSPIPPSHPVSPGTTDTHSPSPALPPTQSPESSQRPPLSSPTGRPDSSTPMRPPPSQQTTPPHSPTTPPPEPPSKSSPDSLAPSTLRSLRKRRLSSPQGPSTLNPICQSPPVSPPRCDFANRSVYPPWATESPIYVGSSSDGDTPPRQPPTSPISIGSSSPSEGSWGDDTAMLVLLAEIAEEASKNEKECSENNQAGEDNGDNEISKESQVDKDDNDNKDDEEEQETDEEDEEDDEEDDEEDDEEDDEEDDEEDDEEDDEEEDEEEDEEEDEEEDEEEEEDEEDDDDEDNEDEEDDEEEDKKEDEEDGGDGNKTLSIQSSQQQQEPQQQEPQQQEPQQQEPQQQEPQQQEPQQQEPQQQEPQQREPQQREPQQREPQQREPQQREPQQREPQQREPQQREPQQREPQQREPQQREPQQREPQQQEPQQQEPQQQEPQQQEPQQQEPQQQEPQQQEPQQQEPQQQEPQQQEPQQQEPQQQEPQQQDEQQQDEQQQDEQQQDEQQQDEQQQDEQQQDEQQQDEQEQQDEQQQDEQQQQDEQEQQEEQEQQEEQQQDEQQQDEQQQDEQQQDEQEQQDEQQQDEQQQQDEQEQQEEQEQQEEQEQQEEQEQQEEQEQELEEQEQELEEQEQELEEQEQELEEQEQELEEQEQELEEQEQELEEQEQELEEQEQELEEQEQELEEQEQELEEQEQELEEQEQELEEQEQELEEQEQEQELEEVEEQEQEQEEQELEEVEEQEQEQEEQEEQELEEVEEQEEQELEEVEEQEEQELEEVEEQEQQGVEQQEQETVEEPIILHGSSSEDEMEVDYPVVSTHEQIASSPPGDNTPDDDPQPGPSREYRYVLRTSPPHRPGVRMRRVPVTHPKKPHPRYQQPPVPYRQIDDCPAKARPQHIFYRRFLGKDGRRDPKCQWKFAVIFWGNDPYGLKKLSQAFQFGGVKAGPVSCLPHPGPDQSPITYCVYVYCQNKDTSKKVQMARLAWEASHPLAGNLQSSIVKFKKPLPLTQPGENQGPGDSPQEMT
Calb FLC – C. albicans growth inhibition with fluconazole, primary screen, CaCi-2 strain, Alamar Blue fluorescence; C. albicans CaCi-2 (fluconazole-resistant clinical isolate) + fluconazole, 48 h; growth inhibition, % (concentration not given with the values); hit rate 0.57% among 300,000; AID 1979, 2009;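 active = most replicates above 75%; inconclusive = exactly half above 75%; inactive = most below 75%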;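 also: all wells also contain fluconazole at 8 µg/ml as a sub-toxic cotreatment; 0% = median of DMSO wells and 100% = median of geldanamycin control wells; wells of about 8 µL received 7.5 nL stock; the first replicate is given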
A1 inh – caspase 3/7 activation in MEF A1-2A-BIM cells, primary screen, A1 inhibitor project, cell-based, luminescence, HTS. Caspase-Glo 3/7 luminescence, 3 h; percent of clofoctol response, vehicle zero. caspase activation, % (concentration not given with the values). hit rate 0.066% among 330,000;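 active = over half of replicate activation scores above 10%, or exactly half above 10 with the replicate mean above 10; inconclusive = replicate mean below 10 yet half the replicates above 10; inactive = over half of replicates below 10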;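 also: wells of about 30 µL received 50 nL stock; many hits fall short of the cut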
T cruzi repl – inhibitors of intracellular T. cruzi growth, primary screen, luminescence, NIH3T3 host cells | inhibition, % (no concentration beside the values) | T. cruzi beta-gal in NIH3T3, 90 h | AID 1885, 2009 | hit rate 1.4% among 300,000;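 active = mean inhibition across valid replicates above about 55%, limit read from the data; inconclusive = mean below that limit but half or more replicates reach it; inactive = mean below it, under half of replicates reach it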;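 also: signal also drops with host cell toxicity which is not excluded here; 0% = plate median of DMSO wells and 100% = zero luminescence signal; higher percent means less beta-gal luminescence so fewer parasites; stock transfer was 50 nL into about 50 µL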
Vif A3G – inhibitors of Vif binding to APOBEC3G peptide, primary screen, biochemical, TR-FRET, GST-Vif 1-94, biotin-A3G peptide, dose response retest (AID 1117319) | Virion infectivity factor (Human immunodeficiency virus type 1 group M subtype B (isolate … | TR-FRET GST-Vif / biotin-A3G peptide binding; higher % means a stronger effect; test concentration not given here; strong numbers were not always called active | one-dose inhibition, %; IC50 in µM for titrated hits | hit rate 0.57% among 260,000;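 active = above the screen mean plus three standard deviations and confirmed in dose response; inconclusive = results disagree or hit not tested in dose response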;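 also: Vif residues 1-94 fused to GST binding biotinylated APOBEC3G peptide 110-148; 0% = full assay without inhibitor and 100% = GST in place of GST-Vif; retest series ran down from 100 µM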
AF4-AF9 inh – inhibitors of AF4 peptide binding to AF9, primary screen, biochemical, AlphaScreen, biotin-AF4 peptide, FLAG-AF9, single point; hit rate 0.47% among 350,000; Protein AF-9 (Homo sapiens), P42568; inhibition, % at 10 µM;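 active = every replicate reaching a set inhibition limit, whatever the replicate mean, cut at about 25% in these data; inconclusive = mean inhibition reaches that limit but some replicates miss it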;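 also: 0% = plate neutral control median and 100% = total signal loss; the record names both 10 and 1 µM as test concentration; the first replicate is given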
An asterisk follows results filed as active; ? = inconclusive; . = not tested or not shown.

SMILES	Beta apoptosis	RanGTP-Impb inh	LANA-H2A inh	Calb FLC	A1 inh	T cruzi repl	Vif A3G	AF4-AF9 inh
O=C(CCN1C(=O)c2cccc3cccc(c23)C1=O)NC1CCS(=O)(=O)C1 (stereo not given)	-3	-1.1	5.5	-7	-0.8	-6	0%	-5.2
Cc1nc2cc(Nc3ccncc3)ccc2s1	-1	3.8	-4.1	-2	0.2	30	12%	6.2
COC(=O)/C=C1/S/C(=N/NC(=O)c2ccc(Cl)cc2Cl)NC1=O	-2	0.6	0.4	6	-1.1	-13	7%	-4.8
NC(=O)c1ccsc1NC(=O)COC(=O)COc1ccc(C=O)cc1	-10	.	0.6	.	0.6	.	3%	-3.3
COc1ccccc1-c1coc2c(CN3C(C)CCCC3C)c(O)ccc2c1=O (stereo not given)	-9	-0.9	5.3	0	0.5	4	-8%	1.0
COc1ccccc1C(=O)N(Cc1sccc1C)C1CCS(=O)(=O)C1 (stereo not given)	-2	0.2	-0.5	8	1.4	-6	.	0.6
CC(Sc1nnc(C2CC2)n1C1CC1)C(=O)NC1(C#N)CCCCC1 (stereo not given)	-1	.	-4.2	.	1.3	.	-7%	-0.1
O=C(CN1CCOCC1)Nc1nc2cc([N+](=O)[O-])ccc2s1	-5	8.1	-2.5	-5	-0.5	-18	9%	.
Cc1ccc(S(=O)(=O)NNC(=O)C(=O)NNc2ccccn2)cc1	0	2.2	2.1	3	1.6	-10	7%	.
Cc1cccc(C(=O)NC(=S)Nc2ccc(Cc3ccncc3)cc2)c1	-1	-4.8	-0.3	17	-1.1	-16	2%	.
CSc1nnc(SCC(=O)Nc2ccc3[nH]c(=O)[nH]c3c2)s1	0	.	-8.9	.	0.2	.	3%	-0.4
COc1ccc(OC)c(NC(=O)CN(c2ccc(C)cc2)S(=O)(=O)c2c(C)n[nH]c2C)c1	1	1.8	-0.5	14	0.1	9	.	6.5
COc1ccc(NC(=O)Nc2cccnc2)cc1	8	0.9	0.2	5	-1.8	-15	?	-2.2
COc1cccc(NC(=O)Nc2ccc3nc(C)c(C)nc3c2)c1	-4	2.7	-2.7	38	-4.7	5	2%	-3.5
CCOc1nc(NC2CCCC2)nc(N2CCC(C)CC2)n1	26	0.6	-1.0	-5	2.8	?	.	2.2
CCCCCNC(=O)C1c2ccccc2Oc2ccccc21	-2	0.4	-0.7	-5	-4.3	1	.	2.2
Cc1ccc(C(CCNC(C)c2cccs2)c2ccco2)cc1 (stereo not given)	3	0.8	0.7	7	0.2	2	0%	3.5
COc1cccc(NC(=O)C(C)N2C(=O)c3ccccc3S2(=O)=O)c1 (stereo not given)	-3	0.7	3.1	5	0.7	-2	-3%	0.2
COc1ccc(/C=N/Nc2nncc3ccccc23)c(OC)c1	-8	9.3	-2.3	1	-7.6	-24	-5%	.
C#CCNc1cc(C)nc2ncnn12	-5	.	-2.0	4	-0.4	-20	14%	.
O=C1CNC(=O)/C1=C\N1CCN(C(c2ccccc2)c2ccccc2)CC1	-4	-1.4	-4.3	-1	0.7	2	21%	.
CC1(C)C(c2ccccc2)=[N+]([O-])CN1O	-10	1.0	0.4	-9	0.7	-12	-4%	.
Cc1ccc(C2Nc3ccccc3NC3=C2C(=O)OC(C)C3)cc1 (stereo not given)	-22	-1.9	1.1	16	-1.1	-9	.	4.1
CC(C)Cc1nc(SCC(=O)N2CCCC2)c2c(=O)n(C)c(=O)n(C)c2n1	-4	1.7	-1.9	-3	1.9	-7	9%	-1.2
Cc1ccc(-c2ccnc3nc(Sc4ncc(C(F)(F)F)cc4Cl)nn23)cc1	-4	0.8	-1.1	-22	-0.3	39	23%	.
SMILES	Beta apoptosis	RanGTP-Impb inh	LANA-H2A inh	Calb FLC	A1 inh	T cruzi repl	Vif A3G	AF4-AF9 inh
COc1ccc(CCN(C)C(=O)CN2C(=O)NC3(CCCCCC3)C2=O)cc1OC	-1	.	0.2	.	0.0	.	.	0.2
Nc1nnc(CC(=O)N/N=C/c2ccc(-c3ccccc3)o2)s1	-4	4.7	-1.3	-44	0.0	-13	30%	9.3
O=C(Nc1ccc(Cl)cc1)N1CCN(Cc2ccc3c(c2)OCO3)CC1	3	0.3	6.1	-3	0.7	6	24%	4.3
O=C(COC(=O)c1nn(-c2ccccc2C(F)(F)F)cc1O)c1ccc(OC(F)F)cc1	-4	2.0	-7.2	-1	-0.9	-8	-2%	0.9
CC(NS(=O)(=O)c1ccc2c(c1)CC(C)N2C(=O)C1CC1)c1ccccc1 (stereo not given)	0	-0.8	-1.7	1	0.0	-7	-1%	-1.8
COc1ccc(-c2cn3c(C)c(C(=O)N4CCN(c5ccc(F)cc5)CC4)sc3n2)cc1	0	-0.5	-8.1	1	-1.7	16	-6%	10
CC(=O)N(Cc1ccc(F)cc1)C1=C(NCCc2ccccc2)C(=O)c2ccccc2C1=O	106*	5.8	-3.5	87*	-0.4	39	16%	.
O=C(CN1CCN(S(=O)(=O)c2ccccc2)CC1)Nc1ccc2c(c1)CCC2	-1	0.1	-1.0	48	-0.5	3	-7%	4.4
CCCNC(=O)NC(=O)COC(=O)CC(NC(N)=O)c1ccc(Cl)cc1 (stereo not given)	1	1.2	8.1	0	0.8	-7	-1%	-0.2
CC1(C)OC(=O)C(=CNc2ccccc2F)C(=O)O1	-3	2.4	-1.5	-19	-0.5	-5	-1%	.
CC1(C)Cc2c(sc(NC(=O)c3ccc(C(=O)c4ccccc4)cc3)c2C#N)C(C)(C)N1	-1	-0.1	-1.0	-1	0.1	6	1%	-0.3
CCCNC(=O)OC[C@H]1O[C@H](CCO/N=C/[C@@H](NS(=O)(=O)c2ccc(C)cc2)[C@H](C)/C=C/CC(=O)OC)C=C[C@@H]1Oc1ccc(OC)cc1	.	0.5	.	-3	.	29	2%	.
COc1ccc(-c2nn(-c3ccccc3)cc2/C=N/NC(=O)c2cccc(S(=O)(=O)Nc3ccccc3Cl)c2)cc1	7	1.4	1.3	-2	0.5	-22	.	-16
O=C(CN1CCOCC1)Nc1scc(-c2ccccc2)c1C(=O)N1CCOCC1	-10	2.6	1.0	0	1.2	8	-4%	.
CC(=O)Nc1c(C(=O)NCc2ccccc2)nnn1Cc1ccccc1	5	1.4	4.2	-1	-0.4	-3	1%	.
Cc1c(C(=O)OC2CCC(C)CC2)[nH]c2c1C(=O)CCC2 (stereo not given)	10	-1.1	2.0	-1	0.8	13	-2%	-5.5
Cc1c(NC(=O)COC(=O)CSc2ccc(C(N)=O)cc2[N+](=O)[O-])c(=O)n(-c2ccccc2)n1C	-4	4.8	-1.5	2	0.6	3	4%	-0.8
CCCCCOC(=O)C1=C(C)NC(=O)NC1c1ccc(OC)cc1 (stereo not given)	1	-2.0	7.0	1	0.9	6	.	-1.8
CNC(=S)Nc1ccc([N+](=O)[O-])c(C)c1	-2	0.3	-1.9	5	0.5	-8	.	12
O=C(Nc1ccccc1N1CCCCC1)C1CC(=O)N(c2ccccc2F)C1 (stereo not given)	0	.	-0.6	.	0.1	.	.	5.1
COc1cc2nc(CN3CCN(S(=O)(=O)c4cc(C)ccc4C)CC3)[nH]c(=O)c2cc1OC	5	.	-5.0	.	1.9	.	2%	2.3
COc1ccc(NC(=O)CN2CCN(S(=O)(=O)c3cccs3)CC2)cc1Cl	-4	.	5.0	.	-0.5	.	-6%	2.8
COc1ccc(C2CC(=O)c3cnc(N4CCc5ccccc54)nc3C2)c(OC)c1 (stereo not given)	2	-0.6	-1.4	9	-0.9	-2	9%	.
Cc1cc(=O)oc2cc(OCC(=O)NCc3ccccn3)ccc12	4	1.4	2.5	0	-0.2	6	2%	.
O=C(O)Cn1cc(C(=S)N2CCOCC2)c2ccccc21	1	1.1	0.6	-6	-0.8	-8	0%	.
SMILES	Beta apoptosis	RanGTP-Impb inh	LANA-H2A inh	Calb FLC	A1 inh	T cruzi repl	Vif A3G	AF4-AF9 inh
CCCCNC(=O)c1cn(C)c2ccc(S(=O)(=O)N3CC(C)CC(C)C3)cc2c1=O (stereo not given)	15	-0.1	0.6	-12	-0.2	2	5%	.
C#CCOCCOCCOCCNc1nc(N2CCN(C(=O)[C@H](CCC(=O)O)n3cc(C(N)Cc4ccc(O)cc4)nn3)CC2)nc(N2CCN(C(=O)[C@H](CCC(=O)O)n3cc(C(N)[C@H](C)CC)nn3)CC2)n1 (stereo not given in full)	0	2.3	2.2	-2	-1.5	-10	.	.
Cc1cc(C)c(NC(=S)N2CCN(c3ccc([N+](=O)[O-])cn3)CC2)cc1C	-3	0.0	-4.1	-8	0.3	-37	-2%	-0.3
Cc1c(C(=O)NCCSc2ccc(Cl)cc2)cccc1[N+](=O)[O-]	0	2.2	-1.1	11	-0.2	12	-5%	.
Cc1ccc(N(C(=O)Cn2nnc(-c3ccccc3F)n2)C(C(=O)NC2CCCC2)c2ccncc2)cc1 (stereo not given)	4	-2.9	0.6	-1	0.0	-2	.	-0.3
S=C(NCc1cccs1)Nc1cccc2ccccc12	.	5.9	-2.2	-39	0.9	-9	24%	5.6
Cn1cnnc1SCC(=O)N1N=C(c2ccc(Cl)cc2)CC1c1ccco1 (stereo not given)	0	-3.5	-1.9	1	0.6	0	-10%	-0.2
Cc1nc(NCc2ccco2)[nH]c(=O)c1CCC(C)C	2	-8.1	-7.0	-20	.	-1	0%	.
CCOC(=O)c1c(C)[nH]c(C(=O)OCC(=O)Nc2cc(C)ccc2OC)c1C	5	-3.3	-1.5	-7	-1.3	5	-3%	.
Nc1cc(C(=O)OCC(=O)N2CCOCC2)ccc1Cl	-1	?	6.7	4	-0.2	3	.	1.9
CCOC(=O)CSCC(=O)Nc1c(C(=O)C2CC2)oc2ccccc12	-8	?	0.6	1	0.9	-5	-1%	.
Cc1oc2cc3oc(=O)c(CC(=O)N[C@H](C(=O)N[C@@H](C(=O)O)c4ccccc4)C(C)C)c(C)c3cc2c1C	.	1.8	-2.7	-8	-0.9	-19	.	-0.4
C/C(=N\NC(=O)c1nnn(-c2nonc2N)c1CN(C)C)c1ccco1	7	8.5	-2.0	9	-1.1	19	.	-1.4
CS(=O)(=O)c1ccccc1C(=O)Nc1cccc2ncccc12	1	2.8	-9.8	-4	-0.3	-10	.	1.9
CN(CC(=O)N1CCN(c2ncccn2)CC1)S(=O)(=O)c1ccc(Cl)cc1	.	-2.6	-4.7	4	?	6	0%	-2.9
O=C1CSCC(=O)N1Cc1ccc(Cl)c(Cl)c1	-3	2.7	-7.0	9	0.7	-8	-1%	-1.6
O=C(COC(=O)C12CC3CC(CC(O)(C3)C1)C2)NCCc1ccc(Cl)cc1	-7	3.2	1.6	-3	0.5	-3	-9%	0.1
O=C(CN1CCN(c2cccc(Cl)c2)CC1)c1ccc(O)cc1O	-1	2.0	-0.5	-1	-0.7	1	.	3.6
